Compound activity: PubChem BioAssay, PCMD
Calb biofilm kill = clotrimazole potentiators killing C. albicans biofilm, primary screen, 4-compound mixtures; C. albicans biofilm persisters + clotrimazole, fluorescence viability; primary screen in compound mixtures of four per well; inhibition, % at 7.6 µM; 120,000 compounds, 0.02% hits;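 active = inhibition above 30.3% in the primary screen of four-compound pools, then above 30% when the compound was retested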;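 also: compounds exposed to preformed 24 h biofilms for 48 h; the number belongs to the whole pool; some results filed as inactive read as strong as hits; inactives centre near 12; 0% = biofilm with clotrimazole alone and 100% = kill control; retested singly at about 60 µM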
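Probe or stimulus – Clotrimazole 50 µg/mL co-treatment · System – C. albicans biofilms · Schedule – 24 h biofilm formation, then 48 h compound exposure, 37 °C · Evaluation – percent inhibition of biofilm viability · Technique – 2-h Alamar Blue fluorescence, 535/590 nm excitation/emission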
Active calls of the source: *.

SMILES	Calb biofilm kill
O=C(COC(=O)CNC(=O)C1CCCCC1)Nc1ccc(Cl)cc1F	5.0
CCOc1ccccc1OCC(=O)Nc1nc2ccccc2[nH]1	4.6
Cn1c2ccccc2c2nnc(NN)nc21	9.6
Cc1onc(NC(=O)CSCC(=O)O)c1Br	14.6
CNC(=S)Nc1cc(OC)c(NC(=O)c2ccco2)cc1OC	-8.2
CC(Sc1nc(-c2ccccc2)cc(C(F)(F)F)n1)C(=O)N1CCOCC1 (centres undefined)	9.0
CCC(C)(C)NC(=O)C(c1ccc(O)cc1)N(CCOC)C(=O)CCC(=O)Nc1nccs1 (centres undefined)	22.3
CN(C)C(=O)C1CC(=O)OC12CCCCC2 (centres undefined)	23.0
COc1ccccc1C(=O)NC1CCCCCCC1	16.1
Cc1ccc(Cn2nc(C)c(NC(=O)CCCn3nc(C)c([N+](=O)[O-])c3C)c2C)cc1	18.8
Cc1nc(NC(=O)COC(=O)C2=NNC(=O)CC2)c(Cl)cc1Cl	16.4
COc1ccc(CCNc2cc(C)nc3c(-c4ccccc4)cnn23)cc1OC	8.4
Cc1[nH][nH]c(=O)c1C(c1ccc(-c2ccc(F)cc2)o1)c1c(C)[nH][nH]c1=O	24.3
Fc1ccc(NC(=S)N2CCn3cccc3C2c2cccnc2)cc1 (centres undefined)	18.2
COC(=O)c1sccc1NC(=S)Nc1ccc(F)cc1F	-9.2
C/C(=N\NC(N)=O)c1ccc(Cl)s1	13.6
CCOc1cc(/C=C2/C(=N)N3OC(C)=CC3=NC2=O)ccc1OC(=O)c1ccco1	-10.2
O=C(NCc1ccccc1)NCc1cccs1	17.1
CCOC(=O)c1c(NC(=O)C2CCN(S(=O)(=O)c3ccc(Cl)cc3)CC2)sc2c1CCCC2	10.7
CN1CCN(Cc2nc3ccccc3c(=O)n2Cc2nc(-c3cccc([N+](=O)[O-])c3)cs2)CC1	11.6
Cc1c(C(=O)/C=C/N(C)C)nnn1-c1ccc(Cl)cc1Cl	18.7
COc1ccc(NS(=O)(=O)c2cc(NC(=O)C3CCCCC3)ccc2N2CCOCC2)cc1	10.3
CC(C)c1csc(CN2CCN(Cc3ccc(F)c(F)c3)C(CCO)C2)n1 (centres undefined)	15.4
O=C1N=c2ccccc2=C1c1sc(=S)n(-c2ccc(O)cc2)c1O	13.7
COC(=O)c1ccc(CN2CCC(CO)(Cc3ccccc3Cl)CC2)cc1	21.5
COc1ccc(NC(=O)Cc2cccc(F)c2)cc1S(=O)(=O)Nc1ccccc1Cl	5.1
COc1ccc(C(=O)OCC(=O)Nc2ccc(Cl)c(C(F)(F)F)c2)c(OC)c1OC	15.5
Cc1ccc(C(=O)COC(=O)CCCC(=O)Nc2cc(C(F)(F)F)ccc2Cl)cc1C	14.0
CC(=O)NNS(=O)(=O)c1ccccc1[N+](=O)[O-]	5.6
COc1ccc(N(C)S(=O)(=O)c2cccc(C(=O)Nc3nnc(C4CC4)s3)c2)cc1	12.0
COc1ccc(C2c3c(ncn(CCCN4CCOCC4)c3=N)Oc3ccc4ccccc4c32)cc1OC (centres undefined)	28.6
CC(C)(Oc1ccc(Cl)cc1)C(=O)NC1=NN(c2ccccc2)C(=O)C1	9.1
CC(/C=C1\SC(=O)N(CCCC(=O)O)C1=O)=C\c1ccccc1	18.4
Cc1cc(C)n(Cc2ccccc2F)c(=O)c1C#N	12.5
Cc1ccc(Cl)cc1N1CCN(Cc2cc(=O)n3ccsc3n2)CC1	10.8
Cc1cccc(NC(=O)CSc2nc3[nH]ncc3c(=O)[nH]2)c1	-0.9
CCOC(=O)/C=C1\SCC(=O)N1CC(=O)NC(C)c1ccc(F)cc1 (centres undefined)	21.3
Cc1c(NS(=O)(=O)c2ccc(N3CCCCC3)c([N+](=O)[O-])c2)c(=O)n(-c2ccccc2)n1C	-13.3
O=c1[nH][nH]c(=S)n1C1CCCCC1	14.8
O=C(c1ccc(F)cc1)N1CCN2C(=O)c3ccccc3C12c1ccc(Cl)cc1 (centres undefined)	16.9
CCOC(=O)C1CCN(C(=O)COc2ccc(Br)cc2Br)CC1	10.6
COc1ccc(-c2cc(C(=O)NCc3cn(C)nc3C)c3ccccc3n2)cc1OC	-2.2
O=C(Nc1nnc(/C=C/c2ccccc2)s1)c1ccco1	12.1
O=C(N[C@H]1CC1c1ccccc1)c1ccc([N+](=O)[O-])cc1 (some centres undefined)	16.3
O=C(CN1C(=O)NC2(CCCC2)C1=O)N1CCN(S(=O)(=O)c2ccccc2)CC1	5.4
Cc1cc(C)cc(N(CC(=O)N2CCOCC2)S(=O)(=O)c2ccccc2)c1	15.8
CCOc1cc(C(=O)N/N=C/C2CC=CCC2)cc(OCC)c1OCC (centres undefined)	11.0
CCC(C)[C@H](NC(=O)Nc1ccccc1F)C(=O)OC (some centres undefined)	10.8

Among those listed so far, these have a furan ring, fused or not.
SMILES	Calb biofilm kill
CNC(=S)Nc1cc(OC)c(NC(=O)c2ccco2)cc1OC	-8.2
Cc1[nH][nH]c(=O)c1C(c1ccc(-c2ccc(F)cc2)o1)c1c(C)[nH][nH]c1=O	24.3
CCOc1cc(/C=C2/C(=N)N3OC(C)=CC3=NC2=O)ccc1OC(=O)c1ccco1	-10.2
O=C(Nc1nnc(/C=C/c2ccccc2)s1)c1ccco1	12.1

Given as a markdown table: entries from further up
| SMILES | Calb biofilm kill |
| --- | --- |
| O=C(N[C@H]1CC1c1ccccc1)c1ccc([N+](=O)[O-])cc1 (some centres undefined) | 16.3 |
| O=C(CN1C(=O)NC2(CCCC2)C1=O)N1CCN(S(=O)(=O)c2ccccc2)CC1 | 5.4 |

Other entries:
SMILES	Calb biofilm kill
CCC(C)NCCOCCOc1ccc(Br)cc1 (centres undefined)	11.7
CC(C)CCNc1nc(N)c([N+](=O)[O-])c(NCC2CCCO2)n1 (centres undefined)	7.6
O=C(/C=C/c1cccc([N+](=O)[O-])c1)NCCSCc1ccccc1Cl	11.2
COc1ccccc1N1CCN(C(c2cccs2)C(C)NC(=O)c2ccco2)CC1 (centres undefined)	24.2
CN(C)c1ccc(C(C#N)c2ccc(Cl)cc2)nn1 (centres undefined)	11.3
COC(=O)c1ccc(CNC(=O)c2coc3ccccc3c2=O)cc1	-4.6
O=C1N=C(N2CCCC2C(=O)O)S/C1=C\c1ccco1 (centres undefined)	10.6
COCCCNC(=O)CSc1nc2ccccc2c(=O)n1CCC(=O)NCCc1ccc(OC)c(OC)c1	7.1
O=C(NC(=S)Nc1ccc(N2CCOCC2)c(Cl)c1)c1cccs1	18.8
COc1ccc(C(=O)NCc2nnc(SCC(=O)N3CCc4ccccc43)n2CCc2ccccc2)cc1	13.3
C=CCOc1ccccc1CNCc1ccc(F)cc1	10.1
Cc1nc(NCc2cccnc2)c2c3c(sc2n1)CCCC3	7.1
Cc1cccc(C(CC(=O)O)NC(=O)C(F)(F)F)c1 (centres undefined)	3.3
CC(C)(C)OC(=O)NCCCC[C@H](NC(=O)c1nc[nH]c1C(=O)N1CCN(c2ccccc2)CC1)C(=O)OC(C)(C)C	10.7
CCOc1cc2[nH]c(=S)n(C3CC3)c(=O)c2cc1OCC	12.4
COc1cccc(CC2(CO)CCCN(Cc3cn(C)c4ccccc34)C2)c1 (centres undefined)	27.4
CCN(c1ccccc1)S(=O)(=O)c1ccc(NC(=O)c2ccco2)cc1	22.3
Brc1ccc(OCc2ccccc2)c(CNCC2CCCO2)c1 (centres undefined)	-9.1
CCOC(=O)C1C(=O)C=C(c2ccc(C)cc2)CC1c1ccc([N+](=O)[O-])cc1 (centres undefined)	2.1
CC(C)OCCCNC(=O)c1ccc(C2SCC(=O)N2Cc2ccco2)cc1 (centres undefined)	18.3
Cc1cc(C)nc(SCC(=O)Nc2ncc(Cc3ccc(Cl)c(Cl)c3)s2)n1	5.2
Cc1nc(NC(=O)COC(=O)c2ccc(S(=O)(=O)N3CCc4ccccc4C3)cc2)c(Cl)cc1Cl	7.3
O=C(Cn1cc([N+](=O)[O-])cn1)Nc1cccnc1	11.5
O=C(CSc1nc2ccc(Cl)cc2[nH]1)NC1CCCc2ccccc21 (centres undefined)	-2.2
COc1ccc(N2C(=O)/C(=C/c3cccnc3)NC2=S)cc1	13.1
COc1ccc(CNC(=O)CCNS(=O)(=O)c2ccc(Cl)cc2)cc1	16.7
COc1cccc(/C=N/NC(=O)c2cc(-c3cccn3C)n[nH]2)c1O	28.3
N=C1C(=O)OCC1c1ccccc1NC(=O)Nc1ccccc1 (centres undefined)	8.0
Cc1cc(C)n(CC(=O)N2N=C(C(F)F)CC2(O)C(F)F)n1 (centres undefined)	6.3
CNC(=O)c1ncoc1-c1ccc(Cl)cc1	12.3
Nn1c(SCc2cc([N+](=O)[O-])cc3c2OCOC3)nnc1-c1ccccn1	14.4
NC(=O)Cc1ccc(C(=O)c2ccc(Cl)cc2)s1	-5.9
Cc1onc(-c2ccccc2)c1C(=O)NC(=S)NNC(=O)c1ccco1	19.7
CCOC(=O)Cc1csc(/N=C/c2c(O)n(-c3ccc(C)cc3C)c(=O)c3ccccc23)n1	7.5
CCOC(=O)C1CCN(c2nc(-c3ccc(C)cc3)nc3ccccc23)CC1	11.2
CC(C)S(=O)(=O)c1csc(NC(=O)Nc2ccc(Cl)cc2)c1	13.3
CNC(=O)CSc1nnc(-c2cccnc2)n1-c1ccc(C)cc1	17.3
COc1ccc(N)cc1-n1cnnn1	9.2
Cc1ccc(NC(=O)C(Cc2ccccc2)n2cccc2)cc1 (centres undefined)	13.8
COc1ccc(CN2C(=O)/C(=C/c3ccncc3)SC2=S)cc1	13.3
O=C(Nc1ccccc1)c1cc([N+](=O)[O-])ccc1Cl	10.1
COc1ccc(-c2nc3ccccc3c(=O)n2-c2c(C)n(C)n(-c3ccccc3)c2=O)cc1	2.9
O=C(Cn1ncc(Cl)c(Cl)c1=O)c1ccc(Cl)cc1	8.6
C=CCC(c1ccccc1)N(C(C)=O)c1ccco1 (centres undefined)	10.8
Cc1c(C)n(CCc2c[nH]c3ccccc23)ccc1=O	9.2
Cc1[nH]c2ccccc2c1N=Nc1c(C)n(C)n(-c2ccccc2)c1=O	13.7
CC(C)(C)n1nc2c(c1NC(=O)COc1ccc(Cl)cc1)CS(=O)(=O)C2	16.7
COC(=O)C1=NNC2(c3ccc(C)cc3)C(=O)N(c3ccc(C)cc3)C(=O)C12 (centres undefined)	1.0
NS(=O)(=O)c1ccc(N/N=C/c2ccc(C(=O)O)cc2)c([N+](=O)[O-])c1	12.6
O=C(NCc1cccnc1)C(=O)Nc1nc(-c2ccccc2)cs1	12.6
CCOc1cc(N2CCOCC2)c(OCC)cc1NC(=O)CN1C(=O)NC2(CCCCCCC2)C1=O	12.7
CCOc1cccc(OCCOc2ccc(C(=O)c3ccccc3)cc2)c1	7.7
Cc1cc(C)c2cc(C#N)c(SCC(=O)Nc3ccc4c(c3)OCO4)nc2c1	25.3
COc1ccc(C(=O)N=S2CCN(C(=O)c3ccc(Cl)cc3)CC2)cc1	10.8
C/C(=N\S(=O)(=O)c1ccc(C)cc1)N(C)C	9.1
O=C(NCC(c1cccs1)N1CCOCC1)c1ccccc1NS(=O)(=O)c1ccc(Cl)c([N+](=O)[O-])c1 (centres undefined)	9.9
C=C1CC(C(=O)N/N=C/c2ccc(O)cc2)C1	21.2
C=CCC1(CC=C)CCCN1C(=O)CC1C(=O)NCCN1Cc1cccc(OC)c1OC (centres undefined)	28.0
Cc1ccc(Nc2ccc(C(N)=O)cc2[N+](=O)[O-])cc1C	13.0
COC(=O)CC1C(=O)NCCN1C(=O)CSc1nnnn1-c1ccc(OC)cc1 (centres undefined)	20.2
(listing goes on)
SMILES	Calb biofilm kill
O=C(Nc1ccc(OC(F)F)c(Cl)c1)C(c1ccccc1)c1ccccc1	5.4
O=S(=O)(CC12C3C4C5C1C2C(Br)(C43)C51OCCO1)c1ccccc1 (centres undefined)	9.9
Cc1ccc(S(=O)(=O)Nc2cccc(Oc3cnccn3)c2)cc1	8.0
O=[N+]([O-])c1ccccc1/C=N/NC1=NCCCCC1	-3.3
COc1ccccc1NC(=O)CS(=O)(=O)c1cn(CC(=O)N2CCOCC2)c2ccccc12	15.4
COc1ccc(/C=N/N2C(=O)c3ccccc3C2=O)cc1	5.4
COc1ccc(OS(=O)(=O)c2c(C)noc2C)cc1	17.7
S=C(Nc1ccc(Cl)c(Cl)c1)N1CCOCC1	16.5
Cc1cc(OC(=O)c2ccc(S(=O)(=O)N(C)C)cc2)c([N+](=O)[O-])c(=O)[nH]1	8.9
CS(=O)(=O)c1ccc2nnn(OCC(=O)Nc3cccc(C#N)c3)c2c1	21.4
Cc1ccc(Nc2nnc(SCC(=O)NC(Cc3c[nH]c4ccccc34)C(=O)O)s2)cc1 (centres undefined)	15.2
Cn1c(SCc2cccc(F)c2)nnc1-c1cnccn1	19.6

In a second layout: results already given
| Compound | Calb biofilm kill |
| --- | --- |
| COc1ccccc1NC(=O)CS(=O)(=O)c1cn(CC(=O)N2CCOCC2)c2ccccc12 | 15.4 |
| COc1ccc(/C=N/N2C(=O)c3ccccc3C2=O)cc1 | 5.4 |

Following part.
SMILES	Calb biofilm kill
Cn1nnc(NC(=S)NC(=O)Cc2ccccc2)n1	18.7
Cc1cc2cc(CN(Cc3cccs3)S(=O)(=O)c3ccc4c(c3)OCCO4)c(=O)[nH]c2cc1C	9.5
CC(C)CC(C(=O)O)N(Cc1ccccc1)Cc1ccccc1 (centres undefined)	5.1
C/C(N)=C(/C#N)C(=O)COC(=O)Cc1coc2cc(C)ccc12	17.1
CC(C1CCN(Cc2nc(C3CC3)no2)CC1)N1CCOCC1 (centres undefined)	21.4
O=C(CN(C(=O)CNS(=O)(=O)c1ccccc1)C1CCCC1)NCc1ccco1	3.8
O=C(O)/C=C/C(=O)NNC(=O)c1cccc(Br)c1	8.9
O=C1CC(c2ccc(O)c(O)c2)Oc2c1ccc(O)c2O (centres undefined)	12.6
COc1ccc(Nc2nc3ccccc3s2)cc1	7.2
COc1ccc(/C=C/C(=O)NCC(=O)N/N=C/c2cccnc2)cc1	18.1
Cn1cccc1Cc1nnc(SCC(=O)NCC2CCCO2)n1C (centres undefined)	2.5

This is a subset; count on the stated rates, not on these rows.
